High-throughput results (PubChem)
eIF4H FP inh – inhibitors of RNA binding by human eIF4H; Q15056; eIF4H fluorescence polarization binding assay; inhibition, % at 35 µM; actives 0.94% (n = 290,000); AID 2012;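 active = 50% or more with normal probe brightness, or confirmed in later tests; inconclusive = above 50% with abnormal brightness, or retests that disagree; inactive = below 50% or failed in later tests; about a fifth of its hits are not listed in these tables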;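 also: calls also rest on retests at 20 µM and on dose response follow-up; 0% = protein and probe with vehicle and 100% = probe without protein; strong numbers were not always called active; many hits fall short of the cut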
Yeast UUG start – modulators of start codon recognition fidelity in yeast | activity score, % at 18.7 µM | S. cerevisiae UUG-firefly luciferase reporter, luminescence/redox ratio | actives 0.13% (n = 350,000);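 active = replicate mean at a twofold rise or more, about +100% in these data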;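 also: firefly luciferase made from a UUG start codon reports start codon fidelity; reporter light over untreated wells divided by growth signal over untreated wells; some hits fall short of that in this replicate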
MT1-MMP act inh – inhibitors of human MT1-MMP activation; P50281; HT1080 RFP-PRO-GFP cells, GFP/RFP ratio fluorescence, overnight; percent of plate control window, DMSO zero; GFP/RFP ratio change, % at 20 µM; actives 0.061% (n = 360,000); AID 651647;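 active = GFP/RFP ratio change of at least 30% with cell ATP level not reduced by more than half and red fluorescence within 50% of control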; also: strong numbers were not always called active
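Assay system: RFP-PRO-GFP reporter HT1080 cells; read-out basis: GFP/RFP fluorescence ratio; benchmarks: DMSO wells and RFP-L50D-GFP cells; doses: 20 µM single dose, 1% DMSO; schedule: overnight cell settling, then overnight compound exposure, 37 °C, 5% CO2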
Rce1 inhib – yeast Ras-converting enzyme inhibition. actives 0.27% (n = 290,000). calls only. Q03530. yeast membranes, quenched prenylated peptide cleavage fluorescence;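 active = fall in fluorescence gain of 50% or more versus controls, with final raw signal at or below 3038400; inconclusive = same 50% fall but final raw signal above 3038400; inactive = fall in fluorescence gain under 50%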;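 also: plate controls were neutral control wells for no effect and wells lacking membranes for full effect; tested at 10 µM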
Target sequence (Q03530 whole entry, looked up): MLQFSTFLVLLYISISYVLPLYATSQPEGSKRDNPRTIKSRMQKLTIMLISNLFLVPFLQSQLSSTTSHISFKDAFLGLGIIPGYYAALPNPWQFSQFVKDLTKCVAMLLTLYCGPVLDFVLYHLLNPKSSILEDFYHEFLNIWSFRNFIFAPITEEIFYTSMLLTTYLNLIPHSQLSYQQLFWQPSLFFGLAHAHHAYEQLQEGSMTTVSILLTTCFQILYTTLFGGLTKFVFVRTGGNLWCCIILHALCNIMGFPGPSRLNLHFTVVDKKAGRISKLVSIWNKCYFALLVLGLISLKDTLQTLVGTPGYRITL
HIV Env fusion – inhibitors of HIV Env-mediated cell fusion. actives 1.1% (n = 360,000). inhibition, % at 12.3 µM. HeLa-JRFL Env/CEM21 cell fusion, luciferase. AID 651610;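 active = mean replicate inhibition score of at least 50 and every replicate individually at or above 50; inconclusive = only one of the two criteria met; inactive = mean below 50 and not all replicates reaching 50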;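 also: 0% = plate neutral controls and 100% = maraviroc near 300 nM; one replicate is shown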
PABP polyA inh – PABP-poly(A) binding inhibition; P11940; PABP-poly(A) RNA binding, fluorescence polarization; inhibition, % at 35 µM; actives 1% (n = 290,000); AID 2014;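 active = 50% or more with normal probe brightness, or confirmed in later tests; inconclusive = above 50% with abnormal brightness, or retests that disagree; inactive = below 50% or failed in later tests; about a fifth of its hits are not listed in these tables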;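 also: calls also rest on retests at 20 µM and on dose response follow-up; controls were probe without protein and protein plus probe with vehicle; some compounds called inactive have numbers as strong as hits; many hits fall short of the cut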
Target sequence (P11940 whole entry, looked up): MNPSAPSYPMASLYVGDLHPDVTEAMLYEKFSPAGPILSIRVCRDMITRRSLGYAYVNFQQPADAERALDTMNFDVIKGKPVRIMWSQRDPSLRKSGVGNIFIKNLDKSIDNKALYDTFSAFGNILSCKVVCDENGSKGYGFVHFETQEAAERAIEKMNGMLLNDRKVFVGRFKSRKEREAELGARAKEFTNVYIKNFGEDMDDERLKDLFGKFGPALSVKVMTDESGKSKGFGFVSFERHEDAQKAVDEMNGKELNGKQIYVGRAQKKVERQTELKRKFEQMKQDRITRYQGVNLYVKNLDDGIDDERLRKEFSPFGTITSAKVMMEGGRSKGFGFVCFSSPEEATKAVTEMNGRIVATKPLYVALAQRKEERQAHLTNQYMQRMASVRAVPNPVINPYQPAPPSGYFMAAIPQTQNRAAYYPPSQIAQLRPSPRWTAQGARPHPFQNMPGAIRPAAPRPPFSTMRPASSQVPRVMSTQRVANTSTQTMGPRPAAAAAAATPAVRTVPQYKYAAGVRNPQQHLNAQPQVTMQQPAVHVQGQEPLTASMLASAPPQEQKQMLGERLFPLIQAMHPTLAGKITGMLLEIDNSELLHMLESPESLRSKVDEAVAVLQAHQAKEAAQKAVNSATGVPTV
CSC inhib – cancer stem cell inhibition | cancer stem cell-like cells viability, luminescence | inhibition, % at 7.5 µM | actives 1.1% (n = 300,000);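 active = mean at 75% or more and at least half the replicates too; inconclusive = mean and replicates disagree; tested in HMLE shEcad cells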;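 also: 0% = median of negative and 100% = median of positive control wells; the first replicate is given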
eIF4H FP inh retest – also measured in eIF4H FP inh; calls as there; inhibition, %; compound at 20 µM; confirmation average;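 mean of two retest wells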
PABP polyA inh retest – recorded beside PABP polyA inh, whose call it bears; inhibition, %; compound at 20 µM; confirmation repeats;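 mean of two retest wells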
MT1-MMP act inh RFP – further read-out of MT1-MMP act inh, marked with its call; RFP signal change, %; measured here: RFP expression control read;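 0 = vehicle wells; hits needed this value within 50% of zero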
* hit, by the source's call; i = inactive; ? = inconclusive; . = no result given. The list is partial. The share of hits here may be higher or lower than overall.

SMILES	eIF4H FP inh	Yeast UUG start	MT1-MMP act inh	MT1-MMP act inh RFP	Rce1 inhib	HIV Env fusion	PABP polyA inh	CSC inhib	others
COc1ccc(C(C)NCCC(c2ccc(OC(C)C)cc2)c2ccccc2OC)cc1 (stereo not drawn)	2	.	-11	-8	i	?	-1	104*
CCCCOC(=O)CCn1[nH]c(=O)c2ccccc2c1=O	-9	-19	5	8	i	5	2	-3
CCCC(=O)c1cc2c(cc1NC(=O)CC)OCCO2	10	-7	0	0	i	-30	6	0
Nc1nc(=O)n(C2CCCO2)cc1Br (stereo not drawn)	.	-5	4	-1	.	-13	.	.
CN1CCN(c2ccc(NC(=O)c3ccc(C#N)cc3F)cc2Cl)CC1	27	-18	-2	-3	i	5	-7	?
CC(C)[C@H](NC(=O)N1CC(=O)Nc2ccccc21)C(=O)Nc1nccs1	-14	.	1	4	i	-2	0	-21
N#Cc1ccc(C2=CC(=O)C[C@H](c3ccc(F)cc3)C2)cc1	.	-15	9	3	.	-20	.	22
c1ccc(COc2cccc(-c3cc4nc(NCc5ccc6c(c5)OCO6)ccn4n3)c2)cc1	.	-17	-7	-16	.	23	.	.
Cc1ccc(-c2nnc(-c3ccc(Br)cc3)o2)o1	-18	-16	-9	-2	i	-188	0	-10
CCc1ccccc1NC(=O)CCC(=O)OCC(=O)c1ccc(-c2ccccc2)cc1	5	-21	1	1	i	-235	-9	-17
O=[N+]([O-])c1cc(S(=O)(=O)Nc2ccc(Cl)cc2)ccc1N/N=C/c1ccncc1	2	-12	22	0	i	-49	6	-1
O=S(=O)(N/N=C/c1ccccc1OCc1ccc(Cl)cc1)c1ccccc1	1	.	0	1	i	-122	10	61
Cc1ccc(S(=O)(=O)N2CCN(C(=O)c3ccco3)CC2)cc1C	0	-9	2	5	i	11	6	-6
NC(Cc1ccc(O)c([N+](=O)[O-])c1)C(=O)O (stereo not drawn)	-10	.	-3	-9	i	17	12	11
COc1ccccc1N1CCN(C(c2cc3ccc(C)cc3[nH]c2=O)c2nnnn2C2CCCC2)CC1 (stereo not drawn)	-4	-5	-3	-3	i	-84	26	10
O=C1CC(Sc2ncccn2)C(=O)N1c1ccccc1C(F)(F)F (stereo not drawn)	0	-12	-6	1	i	-11	9	9
O=C(O)CC(Cc1ccccc1)C(=O)Nc1ccc([N+](=O)[O-])cc1 (stereo not drawn)	0	.	3	4	i	-12	-3	-12
CCN(C(=O)c1cnc(N2CCN(c3ncccn3)CC2)c2ccccc12)c1cccc(Cl)c1	-3	-13	-14	-31	i	.	-9	14
COc1cc(C(=O)NC23CC4CC(CC(C4)C2)C3)cc(OC)c1OC	-6	-7	0	1	i	-4	5	15
CC(C)NC(=O)c1ccc(COCC(F)(F)F)cc1	1	.	-2	7	i	-7	15	3
CCSc1nnc2c(n1)OC1(CCCC1)Nc1ccccc1-2	-6	-10	2	-3	i	3	21	0
COc1ccc(NC(=O)CN(C)S(=O)(=O)c2ccc3c(c2)NC(=O)CS3)cc1	8	-9	-9	-2	i	4	11	-19
Cc1noc(C)c1S(=O)(=O)NCCc1ccc(S(N)(=O)=O)cc1	-2	-4	3	3	i	.	2	-8
Cc1c(NC(=O)/C(=C/c2cccs2)c2cccs2)c(=O)n(-c2ccccc2)n1C	4	.	-1	0	i	-6	-7	-13
O=C(CSC1=NC(=O)C(Cc2ccccc2)C(=O)N1)Nc1ncc(Br)cc1Br (stereo not drawn)	-6	.	-4	-4	i	21	47	11

Next section, overlapping the part above by 4 compounds.
SMILES	eIF4H FP inh	Yeast UUG start	MT1-MMP act inh	MT1-MMP act inh RFP	Rce1 inhib	HIV Env fusion	PABP polyA inh	CSC inhib	others
COc1ccc(NC(=O)CN(C)S(=O)(=O)c2ccc3c(c2)NC(=O)CS3)cc1	8	-9	-9	-2	i	4	11	-19
Cc1noc(C)c1S(=O)(=O)NCCc1ccc(S(N)(=O)=O)cc1	-2	-4	3	3	i	.	2	-8
Cc1c(NC(=O)/C(=C/c2cccs2)c2cccs2)c(=O)n(-c2ccccc2)n1C	4	.	-1	0	i	-6	-7	-13
O=C(CSC1=NC(=O)C(Cc2ccccc2)C(=O)N1)Nc1ncc(Br)cc1Br (stereo not drawn)	-6	.	-4	-4	i	21	47	11
CN(C)C(CNC(=O)c1cc(S(=O)(=O)N(C)c2ccc(F)cc2)ccc1Cl)c1ccco1 (stereo not drawn)	.	.	-3	1	i	8	.	-2
CCOC(=O)c1cnc(-n2nc(C)cc2C)nc1N(C)C	-12	-38	9	2	i	-160	-17	-6
CCn1cc([N+](=O)[O-])c(C(=O)N2N=C(c3ccc4ccccc4c3)CC2c2ccccc2O)n1 (stereo not drawn)	-4	-14	-23	-19	i	.	2	-3
CCOc1ccccc1CNC(=O)CCc1cn(C)c2ccccc12	6	2	9	3	i	23	7	-13
CC(C)CCNC(=O)c1onc(CSc2ccccc2)c1C(=O)NCCC(C)C	.	9	-9	-8	i	15	.	63
COc1ccc(-c2noc(N3CCC(C(=O)N(C)c4ccccc4)CC3)n2)cc1	4	-10	-2	-16	i	25	-4	3
O=C(CC1(O)C(=O)N(CCc2ccccc2)c2ccccc21)c1ccccn1 (stereo not drawn)	25	15	-1	2	i	-1	-2	13
CC12CCC(C(=O)NNc3ccc([N+](=O)[O-])cc3)(OC1=O)C2(C)C (stereo not drawn)	-5	.	2	1	i	-7	-5	-12
O=C(NC1CCCCC1)C(c1cccs1)N(C(=O)C(F)(F)F)c1ccccc1 (stereo not drawn)	2	-6	2	-1	i	13	2	.
COc1ccc(C2C(C#N)=C(/N=C/N3CCN(C)CC3)OC3=C2C(=O)CC(C)(C)C3)cc1 (stereo not drawn)	-4	.	-5	2	i	.	-2	-11
O=C(O)COc1ccccc1/C=N/NC(=O)c1ccc2c(c1)OCCO2	-5	-2	1	4	i	-7	7	11
CC(=O)N(C)c1ccc(NC(=O)COc2ccc(Br)cc2C)cc1	1	1	2	-2	i	21	-2	6
O=C(COC(=O)Cc1ccccc1[N+](=O)[O-])NC1CCCC1	4	.	-1	3	i	-4	?	-16
O=C(c1cc2ccccc2o1)N1CCN(c2ccccn2)CC1	-4	-5	3	4	i	-16	3	-5
CC(C)NC(=O)c1ccccc1NC(=O)/C=C/c1cccc([N+](=O)[O-])c1	2	-9	3	4	i	-20	3	96*
NS(=O)(=O)c1ccc(CNC(=S)NC2CCCC2)cc1	-6	.	5	3	i	-10	-8	7
CCSc1nnc(NC(=O)CSc2nnc(-c3c[nH]c4ccccc34)n2CC)s1	-7	-5	1	0	i	-2	3	-18
COc1ccc(Cl)cc1NC(=O)CSc1nc(C)cc(C)n1	-5	.	3	-2	i	18	-9	1
Cc1ccc(NC2=CC(=O)CC(C)(C)C2)cc1C	1	-15	2	2	.	19	-4	-8
Cc1nc2sc(C(c3ccc(Br)cc3)N3CC(C)OC(C)C3)c(O)n2n1 (stereo not drawn)	-3	-16	6	1	i	.	2	.
CCCCc1nc2cc(C(=O)N3CCCCC3CC(=O)OCC)ccc2o1 (stereo not drawn)	2	7	0	2	i	-29	0	-9
CC(C(=O)NCc1ccco1)n1ccc2cc(S(=O)(=O)N3CCCC3)ccc21 (stereo not drawn)	-11	7	3	1	i	-1	-6	3
O=C1C2C3C=CC([C@@H]2C(=O)N1C1CC1)[C@H]1C(=O)N(C2CC2)C(=O)C31 (stereo partly drawn)	0	-18	-9	-7	i	8	4	-11
O=C(/C=C/c1ccc(S(=O)(=O)N2CCOCC2)cc1)NCc1ccccc1	0	.	-5	-4	i	-9	2	22
O=C(Nc1cccc(Cl)c1Cl)C1CCN(C(=O)c2cccs2)CC1	-14	2	1	-3	i	11	-4	-6
The listing continues.
SMILES	eIF4H FP inh	Yeast UUG start	MT1-MMP act inh	MT1-MMP act inh RFP	Rce1 inhib	HIV Env fusion	PABP polyA inh	CSC inhib	others
CCOc1ccccc1C1CC(=O)NC(SCC(=O)Nc2nccs2)=C1C#N (stereo not drawn)	9	-3	-8	8	i	.	18	-2
COc1ccccc1CNC(=O)CCCN1C(=O)COc2ccc(C)cc21	-2	18	1	-1	i	-9	-2	-12
COc1ccc(C2C(C#N)=C(SC)NC3=C2C(=O)CC(C)(C)C3)cc1 (stereo not drawn)	-4	-5	0	-1	i	-48	-6	-4
COc1ccc(C(CNC(=O)Cc2ccccc2F)N2CCCCC2)cc1 (stereo not drawn)	4	.	-5	3	.	-5	6	-5
COC(=O)c1cc(OC)c(OC)cc1NC(=O)c1ccc(C)cc1	0	-4	1	-5	i	9	81	13	eIF4H FP inh retest=-7;PABP polyA inh retest=1
NC(=O)c1nsc(C(=O)N(Cc2ccco2)C(C(=O)NC2CCCC2)c2ccc(O)cc2)c1N (stereo not drawn)	0	-3	1	2	i	23	3	.
CCCCS(=O)CC(COc1ccc(Cl)cc1)OC(=O)c1ccccc1 (stereo not drawn)	-3	-1	-2	-5	i	0	-9	-12
C=CCNC(=O)C(C)N1c2cccc3cccc(c23)S1(=O)=O (stereo not drawn)	2	-1	-2	-1	i	-25	2	-9
CN(Cc1ccccc1)C(=O)c1nc[nH]c1C(=O)N1CCN(c2ccccc2)CC1	.	-17	4	4	.	29	.	-17
CC(C)NC(=O)N(C)C[C@H]1Oc2ncc(Br)cc2C(=O)N([C@H](C)CO)C[C@@H]1C	.	-8	-2	3	.	6	.	.
C/C(N)=C(/C#N)C(=O)COC(=O)c1oc2ccccc2c1COC(C)C	10	-4	1	1	i	6	4	-11
COc1ccc(Cn2c(C)nc3oc4cc(OC)ccc4c(=O)c3c2=O)cc1	-2	3	-8	4	i	10	7	.
CN(C)c1ccc(NC(=O)c2ccc(N3CCOCC3)nc2)cc1	-4	-11	5	-4	i	-27	-13	-3
COP(=O)(OC)C(Nc1cc(Cl)cc(Cl)c1)c1cccc(O)c1 (stereo not drawn)	-4	.	-1	-3	i	-6	4	3
COc1cc(C(CC(=O)O)n2cnnn2)ccc1OC(C)C (stereo not drawn)	5	-10	3	5	i	-11	17	-4
O=C(CSCCO)Nc1ccc(C23CC4CC(CC(C4)C2)C3)cc1	-5	-26	2	1	i	-2	-11	8
CCc1cccc(NC(=O)c2cccc(S(=O)(=O)N3CCN(C)CC3)c2)c1	-4	-5	2	3	i	-9	5	-31
COc1ccc(-c2cc(=O)c3c(O)c(OC)c(O)cc3o2)cc1	1	-3	9	2	i	.	15	-3
CC(=O)c1sc(NC(=O)CN2C(=O)NC3(CCCC3)C2=O)nc1-c1ccccc1	.	-4	3	2	i	-4	.	-9
COc1cc(C=Nc2ccccc2C(=O)Nc2ccccc2)cc(OC)c1OC	3.3*	.	-1	2	i	-35	110*	-11	eIF4H FP inh retest=91*;PABP polyA inh retest=78*
COc1ccc(N2C(=O)CC(N3CCOCC3)C2=O)cc1 (stereo not drawn)	0	-17	0	2	i	.	11	-7
CC(C)(C)[C@@H]1CCC(=O)N(CC[C@H](Sc2ccccc2)c2ccccc2)CC1	-5	-9	-8	-8	i	.	-11	104*
C/C(=N\NS(=O)(=O)c1ccccc1)c1ccccc1	13	.	11	6	i	5	3	1
Cc1ccc2nc(-c3ccccc3)c(Cc3ccccn3)n2c1	.	-11	-4	0	.	-26	.	.
COc1ccc(C(=O)CNc2ccc3ccccc3c2)cc1	11	.	-11	7	i	15	7	.
